HSV augment: HSV replication enhancement. HSV replication augmentation in cells, fold increase. maximum fold increase. actives 0.005% (n = 220,000). AID 1956;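 active = peak rise of 1.5-fold or more in the series; inconclusive = self-fluorescent or not available for retest; tested in PC3 cells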;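 also: first round at 10 µM; read as green reporter fluorescence; hits show the peak of a series up to 25 µM; 1 = signal of infected wells without compound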
INS promoter inh: TRM-6 insulin promoter activity inhibition; TRM-6 cells (human fetal islet line), insulin promoter-eGFP reporter, imaging; reporter expression induced with tamoxifen; inhibition, % at 2 µM; actives 0.9% (n = 130,000); AID 1273;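 active = inhibition above the mean plus 3 SD, with well images judged a real hit on visual review, cut at about 60% in these data, passing the limit was not always enough; inconclusive = inhibition over the cutoff but images rejected on review; inactive = inhibition not above the cutoff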
RGS16-Gao HTS: RGS16-Galphao interaction regulator (human) | O15492+P09471 | bead-based flow cytometry RGS16-Galphao binding, fluorescence; actives lie on both sides | binding response (% of control), % at 10 µM | actives 0.38% (n = 220,000);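 active = below 25% or above 175%, edge rows of some plates excepted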;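 also: Galphao activated by GDP with aluminum fluoride before binding; 100% = wells without compound and 0% = beads without RGS; some results beyond the cut were filed as inactive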
Target sequence (O15492 whole entry, looked up): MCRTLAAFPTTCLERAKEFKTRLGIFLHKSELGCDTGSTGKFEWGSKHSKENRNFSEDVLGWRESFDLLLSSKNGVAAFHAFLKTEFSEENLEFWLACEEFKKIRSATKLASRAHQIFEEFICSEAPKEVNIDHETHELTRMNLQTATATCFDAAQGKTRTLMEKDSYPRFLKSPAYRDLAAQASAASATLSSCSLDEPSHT
Target sequence (P09471 whole entry, looked up): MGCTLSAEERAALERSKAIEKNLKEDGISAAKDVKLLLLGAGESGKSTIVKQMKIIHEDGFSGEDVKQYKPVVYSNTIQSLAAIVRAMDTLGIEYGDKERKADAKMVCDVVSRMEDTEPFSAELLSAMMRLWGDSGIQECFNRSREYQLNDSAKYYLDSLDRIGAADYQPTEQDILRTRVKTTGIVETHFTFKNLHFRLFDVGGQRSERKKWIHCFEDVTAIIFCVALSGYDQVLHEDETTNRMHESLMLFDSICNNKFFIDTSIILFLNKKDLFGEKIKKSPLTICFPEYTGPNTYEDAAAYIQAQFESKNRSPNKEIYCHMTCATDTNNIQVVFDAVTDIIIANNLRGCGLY
GALR2 ag: GALR2 (human) receptor agonism | O43603 | GALR2-expressing cells, agonist activation read-out | activation, %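 (tested at 5 µM)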 | actives 0.48% (n = 140,000);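 active = above mean plus 3 SD of all compounds, about 5% in these data, not always enough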;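 also: 0% = vehicle buffer wells and 100% = reference agonist at full effect; tested in CHO reporter cells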
Target sequence (O43603 whole entry, looked up): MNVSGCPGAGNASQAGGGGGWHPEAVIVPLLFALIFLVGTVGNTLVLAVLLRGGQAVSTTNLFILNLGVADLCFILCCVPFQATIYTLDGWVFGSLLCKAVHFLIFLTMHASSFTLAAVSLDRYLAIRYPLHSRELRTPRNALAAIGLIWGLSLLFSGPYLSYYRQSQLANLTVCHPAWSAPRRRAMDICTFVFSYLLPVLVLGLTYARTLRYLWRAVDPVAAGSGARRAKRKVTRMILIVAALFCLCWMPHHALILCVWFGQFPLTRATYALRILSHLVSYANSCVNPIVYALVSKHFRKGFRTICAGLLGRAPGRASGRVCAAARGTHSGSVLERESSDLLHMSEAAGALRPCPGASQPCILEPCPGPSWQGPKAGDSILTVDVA
PKD1 inh: PKD1 (human) kinase inhibition; Q15139; PKD1 kinase fluorescence polarization assay; inhibition, %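 (about 10 µM by stock and volumes)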; actives 0.056% (n = 200,000); AID 797;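 active = inhibition of 50% or more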;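 also: controls were vehicle for no effect and a reference inhibitor for full effect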
INS promoter inh cell count: recorded beside INS promoter inh, whose call it bears; normalized cell count, %; measured here: cell count, toxicity; reference of the scale not given here;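 cells exposed to compound for 48 h; stained nuclei by imaging scaled within each plate; lower means fewer cells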
HSV augment primary fold: also measured in HSV augment; calls as there; fold increase; compound at 10 µM; measured here: primary screen fold increase 10 uM; tested in PC3 cells;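 GFP signal in the first replicate; 1 = infected wells without compound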
Starred values were filed as active, the others as inactive; i = inactive; ? = inconclusive; . = no result given; & = joins results of further samples.

SMILES	HSV augment	HSV augment primary fold	INS promoter inh	INS promoter inh cell count	RGS16-Gao HTS	GALR2 ag	PKD1 inh
Cc1ccc(N2CC(C(=O)N/N=C/c3cccc([N+](=O)[O-])c3)CC2=O)cc1 (stereo unspecified)	i	1.1	29	138	68	-1.1	-15
CCOC(=O)N1CCc2[nH]c3ccc(C)cc3c2C1	i	1	.	.	97	.	2
Cc1ccc(C(=O)NNC(=O)Cc2cccs2)cc1	i	1.1	.	.	99	-1.9	-1
CCN1CCN(c2cc(C)c3cc(NC(=S)N4CCOCC4)ccc3n2)CC1	i	0.81	.	.	98	.	-1
Cc1ccc(S(=O)(=O)N2CCN(CC(=O)N/N=C/c3ccc(C)o3)CC2)cc1	i	0.9	-29	139	102	-2.3	1
Cc1cccc(OCC(=O)NNC(=O)c2ccc([N+](=O)[O-])cc2)c1	i	0.91	33	62	102	.	-3
O=C(Nc1nc2ccccc2[nH]1)C12CC3CC(CC(C3)C1)C2	i	0.94	10	61	113	0.9	-3
Cc1cc(NC(=O)CSc2nc3ccccc3n2CCC#N)no1	i	0.92	.	.	100	.	-11
O=C(CN(CCc1ccccc1)C(=O)CNS(=O)(=O)c1ccccc1)NCC1CCCO1 (stereo unspecified)	i	1	-29	91	90	0.8	3
O=C(Nc1ccc(S(=O)(=O)NCc2ccco2)cc1)c1ccc2ccccc2n1	.	.	.	.	101	-3.0	-5
COc1ccc(C2(C(=O)Nc3cc(C)on3)CCOCC2)cc1	i	0.99	33	104	103	-3.2	-7
CCOC(=O)c1cc2c(=O)n3ccccc3nc2n(CCOC)c1=NC(=O)c1ccncc1	i	0.97	32	109	100	7.5*	2
CC(=O)c1c(C)n(C)c2ccc(OC(=O)c3ccc([N+](=O)[O-])cc3)cc12	i	0.97	.	.	96	.	-7
N#Cc1ccc(OCc2nnc(SCC(=O)N3CCCc4ccccc43)n2-c2ccccc2)cc1	i	0.96	-100	100	97	1.0	4
CCOc1ccc2oc(C(=O)OCC(=O)NC3CC3)c(C)c2c1	i	0.95	.	.	100	.	6
COc1cc2c(cc1O)[C@H](Cc1ccc(Oc3cc(C[C@@H]4NCCc5cc(OC)c(O)cc54)ccc3O)cc1)NCC2	i	0.88	-19	109	100	-2.0	4
O=C(CSc1nnc(Cc2cccs2)n1-c1ccccc1)NCc1ccc2c(c1)OCO2	i	0.78	-39	118	98	0.2	-7
CCNC(=S)NNC(=O)CSc1nc2ccccc2n1C	i	1	.	.	100	.	.
O=C(CSc1nc2ccccc2o1)Nc1ccc(N2CCOCC2)c(Cl)c1	i	0.95	13	145	118	-3.6	2
COC(=O)CC1(c2cccc3ccccc23)C(=O)c2ccccc2C1=O	i	0.94	0	113	101	-1.0	7
COc1cc(C(Nc2ccc(S(=O)(=O)N3CCC(C)CC3)cc2)C(=O)NCC2CCCO2)cc(OC)c1OC (stereo unspecified)	i	0.91	-28	114	103	-2.4	-9
Cc1ccn(C(=O)c2ccc(NC(=O)CC(C)C)cc2)n1	i	1	.	.	101	.	-7
N#C/C(=C/c1ccc(-c2ccc(Br)cc2)o1)C(=O)NC1CCCCC1	i	0.88	39	194	97	3.4	-2
Cc1cccn2c(=O)c(C=O)c(NCc3ccccc3)nc12	i	0.98	.	.	103	.	.
COC(=O)CSc1ccc2nnc(CCNS(=O)(=O)c3ccccc3)n2n1	i	0.95	.	.	93	.	0
COn1c(-c2ccccc2)nc2ccc(Cl)cc21	i	0.72	.	.	88	-1.5	-8
O=C(N/N=C/c1ccc(OCC2COCCO2)cc1)c1ccc(Br)cc1 (stereo unspecified)	i	0.94	-40	89	93	.	2
CC(C)(C)C(=O)Nc1nc2c(c(=O)[nH]1)CCCC2	i	0.93	9	72	85	.	-7
CSc1cccc(CN2CCCC(CNC(=O)c3ccc(F)cc3)C2)c1 (stereo unspecified)	i	0.96	.	.	106	.	4
O=C(COC(=O)C1CCCN1C(=O)C12CC3CC(CC(C3)C1)C2)c1ccc(Br)cc1 (stereo unspecified)	i	0.95	0	109	100	-1.3	0
CCOC(=O)CNC(=O)CSc1nnc(COc2ccc(Cl)cc2)n1CC	i	0.81	-21	159	102	-2.8	9
COc1cccc(C(Nc2ccccn2)c2oc(CO)cc(=O)c2O)c1 (stereo unspecified)	i	1	-5	101	99	.	-2
CC1(C)NC(=O)N(CC(O)COc2ccccc2-c2ccccc2)C1=O (stereo unspecified)	i	1	7	114	99	-2.3	-10
COc1cc(C2C=C(C34CC5CC(CC(C5)C3)C4)NC(=S)N2)cc(OC)c1OC (stereo unspecified)	i	0.83	-30	84	104	-1.2	-4
Cc1ccccc1NC(=S)N1CCOCC1	i	0.97	31	148	102	-0.7	-1
O=C(O)CSc1ncnc2c1sc1nc(-c3ccccc3)c3c(c12)CCC3	i	0.95	.	.	107	.	.
O=C(Nc1cc(C(F)(F)F)ccc1N1CCCCC1)c1ccco1	i	1.1	-462	40	109	-2.2	-9
CCC(C)n1c(=S)[nH]c2c(sc3ccc([N+](=O)[O-])cc32)c1=O (stereo unspecified)	i	1.1	-24	71	111	-0.8	10
Cc1ccc(NC(=O)Cc2n[nH]c(=S)n2C)cc1	.	.	-31	99	98	.	-3
COc1cc(-c2nc(S(=O)(=O)c3ccc(C)cc3)c(N3CCOCC3)o2)cc(OC)c1OC	.	.	9	109	102	-0.9	-13
COCC(C)n1c(C)cc(C(=O)COC(=O)C2=NN(c3ccccc3)C(=O)CC2)c1C (stereo unspecified)	i	1.1	.	.	100	.	-12
CC1(C)Cc2c(sc3c4nnnn4c4nnnn4c23)CO1	i	0.85	-100	38	96	0.5	-9
Cc1cc(C)cc(-n2c(N)c(C(=O)Nc3c(C)n(C)n(-c4ccccc4)c3=O)c3nc4ccccc4nc32)c1	?	.	14	106	95	1.0	11
CC(NC(=O)c1cccnc1)C(c1ccccc1)N1CCN(C)CC1 (stereo unspecified)	i	0.9	7	110	101	-1.7	0
Cc1cc(Br)ccc1SCC(=O)OCC(=O)Nc1ccccc1C#N	i	1.3	.	.	99	-0.7	2
O=C(COC(=O)COc1ccc(Br)cc1)Nc1cccnc1Cl	i	0.92	.	.	105	34*	3
CC(=O)Nc1ccc(NC(=O)CSc2nnc(-c3ccc(NS(C)(=O)=O)cc3)n2C)cc1C	i	0.95	.	.	106	.	1
c1ccc(CCN2CCN(c3ncnc4c3cnn4-c3ccccc3)CC2)cc1	i	0.97	-81	122	103	-0.7	-21
Cc1cc(C(=O)N/N=C\c2ccc(COc3ccc([N+](=O)[O-])cc3)o2)ccc1[N+](=O)[O-]	i	0.88	-11	105	104	-3.5	-3
CCCCn1c(NCc2ccc3c(c2)OCO3)nc2ccccc21	i	0.98	-268	54	141	-2.5	-5
Cc1cc(C)n2ncc(C(=O)NCc3ccccc3)c2n1	i	0.86	0	131	105	-0.5	-10
COc1ccc(C2/C=C\CN(C(=O)c3ccccc3)[C@H](Cc3ccccc3)C(=O)N2Cc2ccc(F)cc2)cc1 (stereo partly specified)	i	0.86	.	.	104	.	.
CCCCN(C)CCCNC(=O)c1cccc(N2CCCC2=O)c1	i	1	-3	108	96	-0.6	14
CCNS(=O)(=O)c1c(C)cc(N2CCCC2=O)cc1C	i	0.74	60	144	100	-1.1	14
c1nc(N2CCOCC2)c2[nH]cnc2n1	i	0.91	27	57	.	-2.7	5
COc1ccc(O)c(/C=N/NC(=S)Nc2cccnc2)c1	i	0.82	.	.	97	.	3
Cc1nnc(SCCn2c(N3CCN(Cc4ccccc4)CC3)nc3c2c(=O)[nH]c(=O)n3C)s1	i	0.68	.	.	103	-1.9	11
COc1ccc(NC(=O)CSc2nnc(-c3cccs3)n2C)cc1OC	i	1	-15	122	105	-0.9	-11
Cc1cc(NC(=O)C2CCCCC2)nc2c1c(=O)oc1ccccc12	.	.	.	.	103	-0.2	-3
Cc1cc(C)n2nc(SCCC(=O)NCCc3ccccc3)nc2n1	i	0.93	0	111	96	-1.6	2

Later entries.
SMILES	HSV augment	HSV augment primary fold	INS promoter inh	INS promoter inh cell count	RGS16-Gao HTS	GALR2 ag	PKD1 inh
Cc1ccc(Cl)cc1NC(=O)c1cc2ccccc2cc1O	i	0.89	.	.	89	.	.
Cc1ccccc1NC(=O)C1Cc2ccccc2CN1C(=O)OCc1ccccc1 (stereo unspecified)	i	0.92	-15	155	109	-0.1	-6
O=C(CN1CCN(CC(=O)Nc2ccccn2)CC1)Nc1ccccn1	i	1.1	0	84	204	-2.0	-4
CN(C)CCCn1c(=S)[nH]c2ccccc2c1=O	i	1	7	125	98	.	-3
Cc1ccc(C)c(N(CC(=O)NCc2ccc3c(c2)OCO3)C(=O)CCC(=O)Nc2ccccn2)c1	i	0.94	.	.	103	-1.4	-12
c1ccc(-c2nc(-c3cccs3)[nH]c2-c2ccccc2)cc1	i	0.95	50	141	95	-1.2	-1
C=CCNC(=S)Nc1cccc2ccccc12	i	1.1	-23	51	92	-2.1	-14
COC(=O)COc1ccc(NC(=O)Cn2nc(-c3ccccc3)c3ccccc3c2=O)cc1	.	.	.	.	99	.	-4
CCN(CC)S(=O)(=O)c1cccc(S(=O)(=O)N2CCCCC2)c1	i	0.95	.	.	117	-0.5	-5
OCCN1C[C@H](O)[C@@H](O)[C@H](O)[C@H]1CO	i	0.9	.	.	104	.	.
CC(C)(C)c1ccc(S(=O)(=O)C(C)(C)C)cc1	i	1.4	.	.	106	.	5
O=C(O)c1ccc2nnn(O)c2c1	i	0.93	.	.	101	.	.
O=c1[nH]n2c(=O)c3c([nH]c2c1N=Nc1ccccc1)CCC3	i	1	7	81	103	-0.5	29
Cc1ccsc1C(C(=O)NC(C)(C)C)N(C(=O)c1csnn1)c1ccccc1 (stereo unspecified)	i	0.94	-67	152	102	.	-6
O=C(NCCc1ccc(F)cc1)c1cccs1	i	1	0	121	75	0.3	2
O=C(CN(C(=O)Cn1nnc(-c2cccs2)n1)c1ccc2c(c1)OCCO2)NCC1CCCO1 (stereo unspecified)	i	0.79	-37	77	101	-1.0	16
Nc1nc(-c2ccco2)c(-c2ccco2)s1	i	1.2	-39	89	98	-1.3	-12
COc1ccc(CC(=O)N2CCOCC2)cc1	i	0.98	29	78	112	-2.2	0
CC1CC(C)(C)NC(=S)O1 (stereo unspecified)	i	1.1&0.93	.	.	105&110	.	-8
NC(=O)CC(NC(=O)Cc1ccc(Br)cc1)c1ccc(N2CCN(c3ccccc3)CC2)c([N+](=O)[O-])c1 (stereo unspecified)	i	0.43	.	.	101	.	.

2 compounds drawn at random from the list so far, as already listed:
SMILES	HSV augment	HSV augment primary fold	INS promoter inh	INS promoter inh cell count	RGS16-Gao HTS	GALR2 ag	PKD1 inh
O=C(O)c1ccc2nnn(O)c2c1	i	0.93	.	.	101	.	.
Nc1nc(-c2ccco2)c(-c2ccco2)s1	i	1.2	-39	89	98	-1.3	-12

Following part:
SMILES	HSV augment	HSV augment primary fold	INS promoter inh	INS promoter inh cell count	RGS16-Gao HTS	GALR2 ag	PKD1 inh
O=C(c1ccco1)c1cc2c(ccc3ccccc32)oc1=O	i	0.94	-51	62	101	-1.1	2
Cc1ccc(-n2nnnc2-c2ccccc2)cc1	i	0.94	-67	77	104	.	-7
COc1cc(NC(=O)COC(=O)CNC(=O)c2cc(C)cc(C)c2)c(C)cc1[N+](=O)[O-]	i	0.94	0	75	105	-3.8	-9
Cc1sc2c(c1C)C(=O)/C(=C\Nc1ccccn1)S(=O)(=O)N2C	i	1	.	.	98	.	.
COC(=O)c1ccc2nc(C(F)(F)F)[nH]c2c1	.	.	.	.	90	-1.0	-18
COc1ccc(C(=O)c2ccc(OC)c(OC)c2)cc1	i	0.65	23	93	90	0.0	1
Cc1nnc2ccc(-c3cccc(NC(=O)c4ccc(Br)o4)c3)nn12	i	0.84	-8	142	101	.	-9
Cc1cccn2c(=O)c3cc(C#N)c(=O)n(CCCN4CCOCC4)c3nc12	i	1.1	-38	171	77	2.8	-3
COc1cc(=O)n(C)c2ccccc12	i	1.1	0	117	106	-2.1	-5

Part of the list above in order of length of the SMILES, ascending.
SMILES	HSV augment	HSV augment primary fold	INS promoter inh	INS promoter inh cell count	RGS16-Gao HTS	GALR2 ag	PKD1 inh
COc1cc(=O)n(C)c2ccccc12	i	1.1	0	117	106	-2.1	-5
Cc1ccc(-n2nnnc2-c2ccccc2)cc1	i	0.94	-67	77	104	.	-7
COc1ccc(C(=O)c2ccc(OC)c(OC)c2)cc1	i	0.65	23	93	90	0.0	1
O=C(c1ccco1)c1cc2c(ccc3ccccc32)oc1=O	i	0.94	-51	62	101	-1.1	2
Cc1sc2c(c1C)C(=O)/C(=C\Nc1ccccn1)S(=O)(=O)N2C	i	1	.	.	98	.	.
Cc1cccn2c(=O)c3cc(C#N)c(=O)n(CCCN4CCOCC4)c3nc12	i	1.1	-38	171	77	2.8	-3

High-throughput results from PubChem.

Rows were taken by chance; about 1.1% have a hit in one of these screens.
